# Rango release inh: prevents RanGTP from dissociating the Rango-importin beta complex | O95149+P62826 | Biochemical FRET Rango-importin beta, RanGTP-induced dissociation | Potency, µM (top dose mostly 46.1 µM), inactives show top-dose activity change, negative = inhibition | 340,000 tested, 0.071% active | AID 540253; active means falling FRET ratio curve, often poorly fitted, with flat reads before Ran was added; inconclusive means other falling curves, or compound fluorescence or quenching; inactive means flat or rising ratio curve;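 note: potency is the fitted concentration of half-maximal effect; % of control where 0% means no effect; nearly all actives have a fitted effect of over 45% in size; -100% = wells without RanGTP and RCC1; the record marks most hits as doubtful in a second field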
#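 Rango/importin beta premix (0.1/0.25 uM final), PBS + 1 mM DTT + 0.02% Tween-20 + 0.1% BSA; cpd 5 min RT; FRET pre-read; + RanGTP-RCC1 (0.6 uM Ran, 2 mM GTP, 0.2 uM RCC1); 45 min RT; FRET post-read, ex 430, em 486/530 nm.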
# GLA inh pH 4.5: inhibitors of human alpha-galactosidase A at pH 4.5; P06280; purified enzyme, 4-MU-alpha-Gal fluorescence, pH 4.5; activity change, negative = inhibition, % at 105 µM; 230,000 tested, under 10 active; inconclusive = small, poorly fitted or top-dose-only inhibition, or a rising curve; inactive = flat fitted curve, though single readings scatter; no compound was filed as active;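 note: 0% = full activity with enzyme and -100% = basal without enzyme; dose as in the result columns while the protocol names 77 µM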
# Rango-impB inh: prevents formation of the Rango-importin beta complex. Rango CFP/YFP FRET sensor + importin beta, 45 min. Q14974. AID 540263. 340,000 tested, 0.031% active. Potency, µM (titrated, usually from 92.2 µM), without a hit: at the top dose inhibition of complex formation; active = rising FRET ratio curve, often small or poorly fitted; inconclusive = mostly compound fluorescence or quenching in the first reads; inactive = flat curves in all reads;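 note: potency is the fitted concentration of half-maximal effect; 0% = DMSO wells and 100% = buffer wells lacking importin beta; nearly all actives have a fitted effect of over 15% in size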
# Target sequence (Q14974 whole entry, looked up): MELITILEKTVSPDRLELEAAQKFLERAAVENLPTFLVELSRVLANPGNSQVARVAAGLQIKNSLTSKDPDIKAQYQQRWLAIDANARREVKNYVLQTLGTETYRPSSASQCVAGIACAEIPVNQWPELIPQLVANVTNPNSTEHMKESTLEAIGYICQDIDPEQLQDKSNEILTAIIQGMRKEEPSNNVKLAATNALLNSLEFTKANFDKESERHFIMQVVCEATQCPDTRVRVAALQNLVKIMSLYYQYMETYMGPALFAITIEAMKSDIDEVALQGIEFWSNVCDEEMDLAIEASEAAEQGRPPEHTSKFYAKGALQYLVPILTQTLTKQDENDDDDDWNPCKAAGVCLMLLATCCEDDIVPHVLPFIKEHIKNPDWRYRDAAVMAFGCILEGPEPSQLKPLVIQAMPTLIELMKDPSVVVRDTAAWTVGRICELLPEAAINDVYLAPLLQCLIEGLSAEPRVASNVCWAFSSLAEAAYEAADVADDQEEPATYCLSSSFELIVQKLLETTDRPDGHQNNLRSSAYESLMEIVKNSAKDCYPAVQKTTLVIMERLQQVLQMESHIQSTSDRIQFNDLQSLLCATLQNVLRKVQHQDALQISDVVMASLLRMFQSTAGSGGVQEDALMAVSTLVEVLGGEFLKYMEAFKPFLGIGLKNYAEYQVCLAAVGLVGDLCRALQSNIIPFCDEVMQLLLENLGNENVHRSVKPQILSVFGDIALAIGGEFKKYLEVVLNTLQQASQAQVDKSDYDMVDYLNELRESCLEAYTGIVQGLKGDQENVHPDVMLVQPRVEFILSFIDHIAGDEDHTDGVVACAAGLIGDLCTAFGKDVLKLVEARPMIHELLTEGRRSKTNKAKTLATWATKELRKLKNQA
#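 FRET biosensor (snurportin 1 IBB flanked by EYFP and cerulean), 50 nM, with compound 5 min, then 0.125 microM importin beta in PBS, 1 mM DTT, 0.02% Tween-20, 0.1% BSA. CFP/YFP ratio read after 45 min at room temperature; pre-read flags interference.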
# miR-21 FLuc: raises the signal of a miR-21 reporter | AID 2288 | 340,000 tested, under 10 active | HeLa miR-21 FLuc reporter, luciferase, 48 h | Potency, µM (series often up to 38.3 µM), inactives show at the highest dose reporter change, positive = more light; active = well fitted rising curve with a large enough effect; inconclusive = small, poorly fitted or top-dose-only effect; inactive = no such curve, though single readings can be large or run the other way;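 note: % of control where 0% means no effect; miR-21 action dims this reporter so a rising signal means less miR-21 action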
#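 HeLa miR-21-FLuc reporter line, endogenous miR-21; 2000 cells/well in DMEM/10% FBS; compound titration up to ~40uM final, 48 h, 37 degree Celsius; luciferase detection reagent, 15 min lysis, CCD luminescence.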
# * marks the source's active call; other numbers are inactive results; ? = inconclusive; . = not tested or not shown. Not all compounds are listed; rates above refer to the full screens.
1	CC(=O)C1=C(O)C(=O)N(Cc2ccco2)C1c1cccc(F)c1 (configuration not stated)
2	Cc1nc(SC2CC(=O)N(c3ccc([N+](=O)[O-])cc3)C2=O)nc2c1CCCC2 (configuration not stated)
3	CCC(NC(=O)CCl)c1ccc(C)cc1 (configuration not stated)
4	CCN(C(=O)COC(=O)CCNS(=O)(=O)c1ccccc1F)c1c(N)n(Cc2ccccc2)c(=O)[nH]c1=O
5	CC(=O)c1cccc(NC(=O)c2ccc3c(c2)C(=O)N(Cc2cccnc2)C3=O)c1
6	CCCCNc1nc2c(c(=O)n(C)c(=O)n2C)n1Cc1cccc(OC)c1
7	CCCOc1ccccc1C(=O)N(Cc1cccs1)C1CCS(=O)(=O)C1 (configuration not stated)
8	O=c1[nH]c2c(Br)cnc([N+](=O)[O-])c2[nH]1

screen / no.	1	2	3	4	5	6	7	8
Rango release inh	-1%	-10%	2%	0%	17%	-5%	-15%	12%
GLA inh pH 4.5	2	7	6	.	.	-4	-3	-1
Rango-impB inh	2.5%	-3.5%	-4.4%	4.7%	4.3%	1.3%	0.9%	1.6%
miR-21 FLuc	-1%	-1%	24%	.	0%	18%	-2%	-2%

9	CCOc1cc(C(=O)NCCC(=O)N2CCC3(CC2)NCCc2[nH]cnc23)cc(OCC)c1OCC
10	O=C(NC1(C(F)(F)F)N=C(c2ccccc2)NC1=O)c1ccccc1 (configuration not stated)
11	Cn1ncc2c(N3CCC(Cc4ccccc4)CC3)ncnc21
12	CCOC(=O)CC(=O)CSc1nc(N)c(C#N)c(-c2ccc(F)cc2)c1C#N
13	COc1ccccc1OCCNC(=O)C(c1ccccc1)c1ccccc1
14	Cn1c(NC(=O)c2ccc(F)cc2)nc2ccccc21
15	COc1cc(O)oc1C=Nc1ccc(C(=O)O)cc1
16	NC(=O)CC(NC(=O)Cc1cccc2ccccc12)c1ccc(NCc2ccccn2)c([N+](=O)[O-])c1 (configuration not stated)

screen / no.	9	10	11	12	13	14	15	16
Rango release inh	-3%	-5%	-14%	?	50%	-1%	5%	-12%
GLA inh pH 4.5	.	6	-3	-13	-6	.	-13	9
Rango-impB inh	-0.2%	-0.7%	-2.3%	?	6.1%	-0.6%	-1.4%	-5.1%
miR-21 FLuc	-5%	0%	14%	4%	11%	-20%	-3%	-1%

17	Cc1nc(CC(=O)NNS(=O)(=O)c2ccc(F)c(Cl)c2)cs1
18	COC(=O)c1cc(C(=O)Nc2nnc(C3CC3)s2)cc([N+](=O)[O-])c1
19	CC1Oc2ccccc2N(Cc2ccccc2F)C1=O (configuration not stated)
20	Cc1ccc(NC(=O)c2sc(N)nc2-c2ccc([N+](=O)[O-])cc2)c(C)c1
21	Cc1ccc2[nH]c(=O)c(CN(CC3COCCO3)C(=O)Nc3ccccc3C)cc2c1 (configuration not stated)
22	COc1ccc(NC(=O)Nc2ccc(OCC(=O)N3CCOCC3)cc2)cc1OC
23	COc1ccc(C(=O)OCC(=O)Nc2nc3c(F)c(F)c(F)cc3s2)cc1OC
24	O=C(COc1ccccc1[N+](=O)[O-])Nc1cccc(C(=O)Nc2ccccc2C(=O)O)c1

screen / no.	17	18	19	20	21	22	23	24
Rango release inh	-16%	0%	.	7%	13%	6%	-6%	-2%
GLA inh pH 4.5	0	5	-2	0	2	-7	4	.
Rango-impB inh	2.2%	4.4%	.	?	2.0%	-2.2%	-0.1%	5.6%
miR-21 FLuc	-4%	-4%	-4%	-20%	15%	-6%	-1%	0%

25	Cc1ccc(NC(=S)NC(=O)/C=C/c2ccc(Cl)cc2)cc1
26	CC(=O)c1sc(NC(=O)CCCOc2ccc(Cl)cc2)nc1C
27	CCN(Cc1ccccc1)C1CCN(Cc2ccc(SC)cc2)CC1
28	CCCN(CCc1ccccc1)C1CCc2c(O)cccc2C1 (configuration not stated)
29	NC(=O)COC(=O)c1ccc2c(c1)C(=O)N(Cc1ccco1)C2=O
30	CC(C)COP(=O)(OCC(C)C)C(Nc1ccccc1)c1ccc(F)cc1 (configuration not stated)
31	O=C(c1ccc(CNc2c(N3CCCC3)c(=O)c2=O)cc1)N1CCc2ccccc2C1
32	COc1ccc(Oc2ccccc2/C=C/C(=O)O)cc1

screen / no.	25	26	27	28	29	30	31	32
Rango release inh	11%	1%	-6%	1%	44%	-19%	-10%	-7%
GLA inh pH 4.5	-4	4	-11	-16	.	-10	6	3
Rango-impB inh	5.9%	-0.8%	4.0%	0.2%	-0.5%	2.2%	-3.9%	0.5%
miR-21 FLuc	-9%	5%	-8%	.	-6%	14%	-6%	-5%

33	CCCCn1c(N)c(N2CCOCC2)c(=O)n(CC(=O)NCCc2ccccc2)c1=O
34	C[C@H](CO)N1C[C@H](C)[C@@H](CN(C)S(C)(=O)=O)Oc2ccc(NC(=O)Nc3ccc(C(F)(F)F)cc3)cc2C1=O
35	COc1ccc(CN2CCCC(C(=O)c3ccc(SC)cc3)C2)cc1Cn1cccn1 (configuration not stated)
36	Cc1c(C(=O)O)sc2nc3n(c(=O)c12)CCC3
37	COc1ccccc1OCc1ccc(C(=O)N2CCN(C)CC2)o1
38	COc1ccc(F)cc1S(=O)(=O)N1CCCN(S(=O)(=O)c2cc(F)ccc2OC)CC1
39	CC(=O)Nc1ccc(CN2CCCC(CCC(=O)NCc3ccccc3F)C2)cc1 (configuration not stated)
40	CC(=O)Nc1c(C(=O)N2CCCCCC2)cnn1-c1ccccc1

screen / no.	33	34	35	36	37	38	39	40
Rango release inh	-24%	0%	0%	-13%	-1%	0%	8%	0%
GLA inh pH 4.5	4	.	-5	-6	-4	-7	-5	4
Rango-impB inh	?	2.1%	0.4%	-4.2%	0.2%	-2.1%	-0.1%	4.1%
miR-21 FLuc	-34%	.	14%	0%	-17%	12%	-1%	0%

41	COC(=O)[C@@H](NC(=O)NCc1cccs1)C(C)C
42	CC(C)c1ccc(C(C(=O)NC2CCCCC2)N(C(=O)c2csnn2)C2CC2)cc1 (configuration not stated)
43	Cc1ccccc1-c1nc(CS(=O)(=O)CC(=O)N2CCc3ccccc3C2)c(C)o1
44	O=C(c1ccc2c(=O)n(C3CCCC3)c(=S)[nH]c2c1)N1CCN(C2CCCCC2)CC1
45	CCS(=O)(=O)CCSc1nc2c(cc1C#N)CCCC2
46	CN(C)CCNC(=O)COc1cccc(Cl)c1
47	O=[N+]([O-])c1cccc(-c2nc(-c3ccncc3)no2)c1
48	Cc1ccc(NC(=O)Cn2nc([N+](=O)[O-])c(Br)c2C)cc1C

screen / no.	41	42	43	44	45	46	47	48
Rango release inh	-10%	3%	17%	-1%	9%	-3%	10%	-1%
GLA inh pH 4.5	1	.	-10	-10	-9	6	-5	10
Rango-impB inh	3.5%	?	-1.0%	-0.6%	2.6%	-1.1%	1.2%	0.0%
miR-21 FLuc	6%	7%	-4%	-1%	-37%	-6%	-20%	-8%

# Some of the entries above, reformatted:
# Results follow in this order: Rango release inh | GLA inh pH 4.5 | Rango-impB inh | miR-21 FLuc
48) Cc1ccc(NC(=O)Cn2nc([N+](=O)[O-])c(Br)c2C)cc1C
 : -1% | 10 | 0.0% | -8%
41) COC(=O)[C@@H](NC(=O)NCc1cccs1)C(C)C
 : -10% | 1 | 3.5% | 6%

# (further entries)
49	Nc1c(-c2ccccc2)c(CN2CCOCC2)nn1-c1ccc(F)cc1
50	COc1ccccc1N1CCN(S(=O)(=O)c2cc(Br)cnc2N)CC1
51	O=S(=O)(c1ccc(F)cc1)N1CCN(C(=S)NCc2ccccc2)CC1
52	O=C(NNC(=O)c1ccncc1)Nc1ccccc1
53	CCN(C[C@H]1N[C@@](CC)(C(=O)OC)[C@H]2C(=O)N(Cc3ccccc3)C(=O)[C@@H]12)C(=O)c1ccc(C)cc1
54	CC(=O)Nc1cccc2ccc(O)cc12
55	Cc1cccc(C)c1NC(=O)COC(=O)c1ccc([N+](=O)[O-])o1
56	CC(=O)NC(CC(=O)NNC(=O)C(C)Oc1ccccc1F)c1ccccc1 (configuration not stated)

screen / no.	49	50	51	52	53	54	55	56
Rango release inh	3%	-9%	-30%	12%	-3%	-1%	6%	0%
GLA inh pH 4.5	2	.	-7	.	.	.	1	.
Rango-impB inh	-1.4%	3.4%	0.6%	-0.2%	-1.2%	-5.7%	6.5%	0.1%
miR-21 FLuc	1%	2%	-4%	1%	.	.	7%	.

57	O=C(Nc1ccccc1)c1ccc(NC(=O)C2CC2)cc1
58	Cc1ccc(S(=O)(=O)N2CCN(C(=O)c3cc(S(=O)(=O)N4CCOCC4)c(Cl)cc3Cl)CC2)cc1
59	Cc1cc(N2CCCC2=O)ccc1S(=O)(=O)Nc1c(C)nn(C)c1C
60	COc1ccc(NC(=O)Cc2ccsc2)cc1S(=O)(=O)N1CCCCC1
61	O=C(CCSc1nnc(-c2ccc(O)cc2)o1)N1CCOCC1
62	CSc1ccc(CCNC(=O)CS(=O)(=O)Cc2nc(-c3ccccc3F)oc2C)cc1
63	O=C(Nc1nnc(SCc2ccccn2)s1)C1CC(=O)N(c2ccc(F)cc2)C1 (configuration not stated)
64	Cc1cccc(NC(=O)N2CCCC2C(=O)NCc2ccccc2)c1 (configuration not stated)

screen / no.	57	58	59	60	61	62	63	64
Rango release inh	2%	7%	-15%	6%	2%	9%	-12%	16%
GLA inh pH 4.5	.	.	-9	.	-4	.	.	.
Rango-impB inh	-2.2%	-1.6%	8.0%	0.0%	0.2%	-3.9%	0.1%	-0.4%
miR-21 FLuc	-56%	.	15%	.	-12%	-2%	-2%	0%

65	COc1ccc(/C(N)=N/OC(=O)COc2ccccc2Cl)cc1
66	Cc1sc2nc(C3CC3)nc(SCC(=O)N3CCc4ccccc4C3)c2c1C
67	COc1ccc(C2=NN(C(=S)Nc3ccccc3)C(c3ccccc3)C2)cc1 (configuration not stated)
68	Cc1onc(-c2ccccc2Cl)c1C(=O)Nc1nc2c(s1)CCCC2
69	CN(Cc1c(F)cccc1Cl)c1ccc(S(=O)(=O)N2CCOCC2)cn1
70	COc1cc(NC(=O)CCN2CCOCC2)cc(OC)c1
71	CCN1C(=NCCOC)N[C@@H](c2cccs2)C(C(=O)OC)=C1C
72	CCCCc1nc2cc(C(=O)N3CCCCC3CCO)ccc2o1 (configuration not stated)

screen / no.	65	66	67	68	69	70	71	72
Rango release inh	21%	4%	-15%	2%	2%	2%	17%	-1%
GLA inh pH 4.5	2	-9	3	5	-5	.	.	.
Rango-impB inh	-0.6%	-0.3%	-1.2%	-1.6%	3.2%	-3.2%	-0.7%	0.7%
miR-21 FLuc	-41%	8%	-8%	-18%	10%	-3%	3%	-38%

# Single records (already shown). Screens in order: Rango release inh | GLA inh pH 4.5 | Rango-impB inh | miR-21 FLuc
# `Cc1nc(SC2CC(=O)N(c3ccc([N+](=O)[O-])cc3)C2=O)nc2c1CCCC2` (configuration not stated) reads -10% | 7 | -3.5% | -1%
# `CCCN(CCc1ccccc1)C1CCc2c(O)cccc2C1` (configuration not stated) reads 1% | -16 | 0.2% | .
# `COC(=O)[C@@H](NC(=O)NCc1cccs1)C(C)C` reads -10% | 1 | 3.5% | 6%
# `COc1cc(NC(=O)CCN2CCOCC2)cc(OC)c1` reads 2% | . | -3.2% | -3%
# `Cc1cc(N2CCCC2=O)ccc1S(=O)(=O)Nc1c(C)nn(C)c1C` reads -15% | -9 | 8.0% | 15%

# High-throughput results from PubChem BioAssay.
